# Assay outcomes as filed in PubChem.
# LANA-H2A inh: blocks KSHV LANA binding to histone H2A/H2B; Q9QR71; cell-free LANA-H2A/H2B peptide, fluorescence polarization; inhibition, % (test concentration not listed); actives 0.6% (n = 320,000); in the data active = inhibition mostly above about 10%, no sharp cut-off; inactive = mostly below about 6.7%;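 also: stock transfer was 7.5 nL into about 10 µL; 0% = median of vehicle wells and 100% = median of positive control wells; one replicate is shown; the record names a cut of 25% in any replicate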
# Calb FLC: C. albicans growth modulation with fluconazole; actives 0.57% (n = 300,000); C. albicans CaCi-2 (fluconazole-resistant clinical isolate) + fluconazole, Alamar Blue growth, 48 h; growth inhibition, % (test concentration not listed);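 active = most replicates above 75%; inconclusive = exactly half above 75%; inactive = most below 75%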;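 also: all wells also contain fluconazole at 8 µg/ml as a sub-toxic cotreatment; 0% = median of DMSO wells and 100% = median of geldanamycin control wells; wells of about 8 µL received 7.5 nL stock; the first replicate is given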
# B2AR ag: human beta-2 adrenergic receptor agonism by FAP. P07550. Am2.2-beta2AR cells, FAP receptor internalization, flow cytometry; reference of the scale not given here. response, % (concentration not given with the values). actives 0.43% (n = 340,000). AID 504454;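 active = response above a set limit, near 3 SD of response in nonfluorescent compounds, cut at about 42% in these data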;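 also: stock transfer was 100 nL into about 11 µL; a reference agonist was the positive control; negative values mostly stem from fluorescent compounds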
# Target sequence (P07550 whole entry, looked up): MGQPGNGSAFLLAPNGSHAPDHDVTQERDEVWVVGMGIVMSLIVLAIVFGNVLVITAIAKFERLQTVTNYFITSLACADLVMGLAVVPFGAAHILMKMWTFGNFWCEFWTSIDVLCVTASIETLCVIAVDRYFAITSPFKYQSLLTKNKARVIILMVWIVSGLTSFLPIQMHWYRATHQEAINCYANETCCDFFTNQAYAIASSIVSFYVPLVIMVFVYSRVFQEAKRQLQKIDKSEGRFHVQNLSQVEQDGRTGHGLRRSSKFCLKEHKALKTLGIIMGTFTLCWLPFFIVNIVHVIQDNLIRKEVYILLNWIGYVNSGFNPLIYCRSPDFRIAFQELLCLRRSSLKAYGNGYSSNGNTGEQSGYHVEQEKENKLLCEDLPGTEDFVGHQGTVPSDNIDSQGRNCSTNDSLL
# RanGTP-Imp inh: inhibitors of RanGTP-importin-beta interaction, primary screen, biochemical, FRET, CFP-Ran, YFP-importin-beta, homogeneous; cell-free CFP-Ran/YFP-importin-beta FRET ratio; inhibition, % (test concentration not listed); actives 1.1% (n = 300,000);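 active = most replicates above 15%; inconclusive = exactly half above 15%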;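 also: 0% = DMSO wells and 100% = Ran loaded with GDP instead of GTP; wells of about 40 µL received 100 nL stock; the first replicate is given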
# T cruzi repl: blocks replication of Trypanosoma cruzi; T. cruzi beta-gal in NIH3T3, luminescence, 90 h; inhibition, % (test concentration not listed); actives 1.4% (n = 300,000);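 active = mean inhibition across valid replicates above about 55%, limit read from the data; inconclusive = mean below that limit but half or more replicates reach it; inactive = mean below it, under half of replicates reach it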;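 also: signal also drops with host cell toxicity which is not excluded here; 0% = plate median of DMSO wells and 100% = zero luminescence signal; higher percent means less beta-gal luminescence so fewer parasites; stock transfer was 50 nL into about 50 µL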
# UCH37 DUB inh: human UCH37 deubiquitinating enzyme inhibition; purified proteasome/UCH37, Ub-AMC cleavage fluorescence; actives 0.33% (n = 330,000); inhibition, % (no concentration beside the values); AID 588478;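 active = mean of two replicates above 20%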;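 also: 0% = compound-free wells with enzyme and 100% = wells lacking proteasome; stock transfer was 100 nL into about 20 µL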
# Target sequence (Q9Y5K5 whole entry, looked up): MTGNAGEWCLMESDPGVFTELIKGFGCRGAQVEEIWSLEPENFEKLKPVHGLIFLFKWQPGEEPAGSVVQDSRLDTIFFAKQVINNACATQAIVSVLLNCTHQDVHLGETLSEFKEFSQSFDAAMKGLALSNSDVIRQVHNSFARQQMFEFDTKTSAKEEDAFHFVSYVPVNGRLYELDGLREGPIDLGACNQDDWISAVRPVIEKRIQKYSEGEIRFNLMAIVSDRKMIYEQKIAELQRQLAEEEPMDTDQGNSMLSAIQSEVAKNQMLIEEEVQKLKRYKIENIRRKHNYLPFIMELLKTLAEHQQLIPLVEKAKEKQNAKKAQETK
#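 assay system = human UCH37 enzyme supplied as purified proteasome complex | amount = proteasome at 0.15 nM in the dispensed enzyme solution | schedule = 30 min compound-proteasome preincubation then 25 min substrate reaction, room temperature | measured by = fluorescence, ex 355 nm, em 460 nm | benchmarks = no-proteasome wells (full inhibition) and compound-free wells (no inhibition)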
# Beta apoptosis: beta cell apoptosis inhibition. protection from apoptosis, % (no concentration beside the values). INS-1E cytokine-induced death, ATP luminescence, 48 h; percent of positive-control rescue, neutral wells zero. actives 0.8% (n = 300,000);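 active = all replicates at 75% or more, or half of them and the mean; inconclusive = half reach 75% but not the mean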;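 also: 0% = cytokine-treated negative control wells and 100% = positive control rescue; higher means more ATP so stronger rescue from cytokine killing; wells of about 40 µL received 100 nL stock; the first replicate is given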
# Bfl-1 A1 inh: inhibitors of the anti-apoptotic protein A1, read as caspase activation; caspase activation, % (no concentration beside the values); MEF A1-2A-BIM cells, Caspase-Glo 3/7 luminescence, 3 h; percent of clofoctol response, vehicle zero; AID 2462; actives 0.066% (n = 330,000);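 active = over half of replicate activation scores above 10%, or exactly half above 10 with the replicate mean above 10; inconclusive = replicate mean below 10 yet half the replicates above 10; inactive = over half of replicates below 10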;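 also: wells of about 30 µL received 50 nL stock; many hits fall short of the cut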
# Starred values were filed as active, the others as inactive; ? = inconclusive; . = not tested or not shown.
SMILES,LANA-H2A inh,Calb FLC,B2AR ag,RanGTP-Imp inh,T cruzi repl,UCH37 DUB inh,Beta apoptosis,Bfl-1 A1 inh
Cc1ccc(-c2nnn(CC(=O)N(Cc3cccs3)C(C(=O)NC3CCCCC3)c3ccco3)n2)o1 (configuration not stated),4.1,0.3,5.3,7.2,-9.6,2.3,1.7,0.4
CC(=O)Oc1ccc(C(=O)Nc2ccccc2C(=O)Nc2cccc(C(=O)O)c2)cc1,0.4,15.7,-1.2,?,1.0,2.7,.,-0.6
S=C(NC1CCCC1)N1CCOCC1,-0.3,-16.3,7.1,1.7,-5.8,-0.9,2.9,0.0
COc1ccccc1Oc1ccc(N/C=C/C(=O)C(C)(C)C)cc1,1.5,?,17.0,5.2,5.2,-1.6,7.1,-1.1
O=C(O)c1ccc(-n2[nH]c3c(c2=O)CCCC3)cc1,-6.6,-1.1,16.2,-0.2,-8.9,2.5,.,0.3
CC(=O)C1=C(C)NC(=O)NC1c1ccc(Cl)cc1 (configuration not stated),8.2,-6.2,0.1,3.2,-4.4,4.4,-1.8,-0.5
N#Cc1ccccc1Cn1c(=O)n(CCCC(=O)NCc2ccc3c(c2)OCO3)c(=O)c2ccccc21,.,3.5,2.3,0.0,8.7,2.4,-0.2,0.9
CCC(=O)Nc1ccc(-c2nnc(SCC(=O)N3CCCCC3)n2C)cc1,0.0,-8.4,-7.1,-0.6,-6.9,2.8,3.3,-1.1
O=C(Nc1ccc2c(c1)OCO2)c1cnn2c1NC(c1ccco1)CC2C(F)(F)F (configuration not stated),-2.1,-0.6,-4.5,?,9.7,-0.4,-0.3,0.5
CCn1c2ccccc2c2cc(NC(=O)c3cc(C)on3)ccc21,-0.3,-10.0,30.7,-0.6,25.6,3.8,7.3,-1.0
O=c1cc(-c2ccccc2)[nH]c2cc(Cl)ccc12,0.9,24.2,-0.7,-0.3,-40.3,-0.5,11.9,-1.8
Cc1ccc(C(=O)Nc2ccc3c(c2)OCCO3)cc1,-6.4,2.8,16.7,-2.0,11.2,6.0,0.8,-12.3
COc1ccccc1NC(=S)NCCSc1ccc(Cl)cc1,-5.8,-20.6,6.0,-1.3,4.1,2.1,-13.9,0.6
COc1ccc(Nc2nc(C(C)(C)C)nc3c2nnn3Cc2ccccc2Cl)cc1OC,-2.4,-1.1,6.1,1.0,43.2,-10.2,3.5,-1.6
CC(C)c1nnc(NC(=O)CSc2ncn[nH]2)s1,1.0,2.6,-1.0,0.8,-5.9,-0.2,-0.6,-0.3
COC(=O)C1=C(C)N(c2ccc(Cl)c(Cl)c2)C(=O)C1,-3.6,61.5,5.9,-3.8,4.6,1.1,-17.0,0.1
Cc1ccc2cccc(NC(=O)c3ccc(Br)o3)c2n1,-1.3,-9.9,6.0,-0.5,1.7,4.4,0.3,0.1
Cc1ccc(CN(C)C(=O)C2CCC(=O)N(CC3CCCCC3)C2)o1 (configuration not stated),9.1,5.6,1.7,4.7,-4.3,5.6,-5.0,0.2
CC(C(=O)Nc1cccnc1)N1C(=O)C2C3C=CC(C3)C2C1=O (configuration not stated),-0.1,16.7,4.2,1.8,-9.0,1.3,0.6,-0.1
Cc1noc(C(=O)N2CCN(c3ccc(F)cc3)CC2)c1Cl,4.8,-8.9,9.6,4.8,6.8,3.4,-3.3,-1.0
Cc1ccc(CNC(=O)C2CCCN(S(C)(=O)=O)C2)cc1 (configuration not stated),-3.4,-1.2,2.6,1.1,-0.4,1.9,.,0.4
CC1(C(=O)NC2CCCCCCC2)CCC(=O)N1Cc1cccnc1 (configuration not stated),-1.2,0.0,1.5,5.2,-14.9,2.9,-1.5,-0.2
COc1ccc(/C=C/c2ccc3c(Br)ccc(O)c3n2)cc1,1.3,-0.5,-5.2,-1.2,49.0,2.0,36.5,-3.0
CCOc1ccccc1NC(=O)C(OC(=O)c1cc(C)oc1C)c1ccccc1 (configuration not stated),-3.6,?,-2.4,-4.7,39.3,1.5,-1.2,-0.3
CCOC(=O)c1ccc(NC(=O)CN2C(=O)NC3(CCC(C)CC3)C2=O)cc1 (configuration not stated),1.0,-3.3,0.8,-0.1,-3.3,-0.8,-2.9,0.2
CC(C)OCCCn1c(=S)[nH]c2ccc(N3CCOCC3)cc2c1=O,3.6,28.8,-8.9,3.5,1.9,-107.5,-0.2,0.2
O=C(CSc1ccccn1)N1CCN(c2ncc(C(F)(F)F)cc2Cl)CC1,-4.4,-7.1,-11.8,-0.2,13.1,3.3,1.4,0.3
Cc1ccc(NC2CCCN(C(=O)C3CCCCC3)C2)cc1C (configuration not stated),3.6,6.2,8.8,1.6,16.3,0.6,-0.3,-0.5
O=C(CN1C(=O)/C(=C/c2ccccc2Cl)SC1=S)NC1CCS(=O)(=O)C1 (configuration not stated),0.2,-0.7,-1.5,-0.6,-9.3,5.7,-1.2,0.8
Cc1cccc(N(C(=O)c2snc(C(N)=O)c2N)C(C(=O)NCC2CCCO2)c2ccc(N(C)C)cc2)c1C (configuration not stated),-0.9,-16.6,-5.9,4.2,-6.5,.,3.5,-1.0
CC(=O)Oc1cccc(C(=O)Nc2ccc3c(c2)C(=O)N(CC2CCCO2)C3=O)c1 (configuration not stated),-23.6,-3.6,4.6,5.8,8.4,-149.1,-3.5,-3.7
O=C(CSc1nnc(-c2ccccc2)o1)Nc1ccccc1F,1.8,-2.7,-0.5,2.0,-5.3,7.8,11.1,-1.0
O=C(Cc1ccc(F)cc1)N1CCC(CC2CC(c3ccc(Cl)cc3)=NO2)(C(=O)NCC2CCCCC2)CC1 (configuration not stated),2.8,21.3,17.6,-1.6,40.2,38.7*,.,0.5
CC(C)c1ccc(C2C3=C(COC3=O)Nc3cc4c(cc32)OCO4)cc1 (configuration not stated),1.1,-16.3,3.2,0.2,45.0,-144.6,33.4,0.5
CCn1cc(C(=O)NCc2ccc3c(c2)OCO3)c(=O)c2cc(S(=O)(=O)N(C)C)ccc21,-5.8,-0.1,-0.1,-2.4,5.0,3.8,3.8,0.0
COc1ccc(CCNC(=O)C2CCN(S(=O)(=O)N3CCCCCC3)CC2)cc1OC,-7.7,0.0,4.2,10.0,-14.2,3.0,-3.3,-0.5
CCOC(=O)C(C)Oc1ccc(NC(=O)C(Cl)(Cl)Cl)cc1 (configuration not stated),2.4,-4.1,1.1,1.0,-8.6,0.9,-11.2,-0.4
O=C(NCC(c1ccco1)N1CCCC1)c1cc(S(=O)(=O)N2CCCCC2)ccc1Cl (configuration not stated),-1.6,.,-17.6,.,.,-0.6,3.7,1.0
CCOC(=O)c1c(C)nc2c(c1-c1ccccc1)C(=O)c1ccccc1-2,-6.8,10.5,17.0,2.5,20.9,2.7,15.0,0.7
CC(C)(OC1OC(CO)C(O)C(O)C1O)[C@H]1Oc2ccc3ccc(=O)oc3c2[C@H]1O (some centres not stated),1.0,8.8,-5.7,-3.1,-9.6,-338.0,-5.0,0.4
O=C(CCc1ccc(S(=O)(=O)N2CCOCC2)cc1)Nc1ccc2c(c1)OCCO2,4.5,3.2,-0.6,4.2,16.5,-1.0,-13.6,-0.1
CCOC(=O)C1CCN(C(=O)c2ccccc2NS(=O)(=O)c2ccc(F)c(F)c2)CC1,-0.6,-1.6,-2.2,2.4,10.7,3.5,-2.1,0.6
CCCC(=O)Nc1cc(=O)[nH]c2ncnn12,0.1,-6.4,3.6,3.3,-9.8,2.3,-4.8,-0.1
O=C(/C=C/c1ccccc1Cl)NCCc1ccccc1,-3.9,-2.1,1.7,1.9,21.9,1.3,-8.8,-0.1
CC(=O)OC1CC2(C)/C(=N\O)CCC2C2CCc3cc(O)ccc3C12 (configuration not stated),-4.6,11.7,0.9,2.6,-0.6,.,1.2,0.0
CCN(CC)CCCNC(=O)c1cc(Sc2nnc(C)s2)nc2ccccc12,-2.7,-1.2,-12.2,4.5,-7.1,1.6,1.8,-0.5
CCN(CC)CCCN(C(=O)c1cccs1)c1nc(-c2ccc(OC)cc2)cs1,-0.7,6.9,1.6,-0.7,43.0,4.0,5.4,-0.3
COc1ccc(NC(=O)CSCC(=O)N=c2sccn2C)cc1,-0.4,-12.9,8.4,0.6,3.1,2.4,-2.9,0.1
CCO[C@@H]1c2c(ccc3ccc(=O)oc23)OC(C)(C)[C@@H]1O,0.1,.,12.1,.,.,-71.1,-4.5,0.4
Cc1ccc(NC(=S)NCc2cccs2)cc1,.,-27.9,0.2,-1.9,-27.7,0.4,4.8,0.0

# Record cards (already shown). Order of values: LANA-H2A inh | Calb FLC | B2AR ag | RanGTP-Imp inh | T cruzi repl | UCH37 DUB inh | Beta apoptosis | Bfl-1 A1 inh
# `COc1ccc(NC(=O)CSCC(=O)N=c2sccn2C)cc1` is listed as -0.4 | -12.9 | 8.4 | 0.6 | 3.1 | 2.4 | -2.9 | 0.1
# `CC(=O)OC1CC2(C)/C(=N\O)CCC2C2CCc3cc(O)ccc3C12` (configuration not stated) is listed as -4.6 | 11.7 | 0.9 | 2.6 | -0.6 | . | 1.2 | 0.0

# Additional records.
SMILES,LANA-H2A inh,Calb FLC,B2AR ag,RanGTP-Imp inh,T cruzi repl,UCH37 DUB inh,Beta apoptosis,Bfl-1 A1 inh
COC(=O)c1cccc(NC(=S)N2CCCCC2)c1,-0.1,-19.0,5.3,0.9,-0.3,3.6,-7.2,0.5
Cc1occc1-c1nnc(SCC(N)=O)n1Cc1ccccc1,-1.2,-1.3,1.4,1.6,-17.8,1.8,-2.0,-0.5
CCCCCCNC(=O)CCc1nc2cccnc2n1Cc1ccc(OC)cc1,2.3,5.3,5.7,-1.3,-11.9,0.8,-3.2,-0.4
Cc1ccc2nc(C)c(C(=O)N/N=C/c3ccccc3[N+](=O)[O-])cc2c1,1.2,2.8,-14.7,7.3,-15.4,.,-0.6,0.2
COc1cc(/C=N/n2cnnc2)ccc1OCCSc1ccc(C)cc1,-6.9,-4.2,-4.5,-1.9,38.0,.,2.1,-0.4
CN1C(=O)c2ccccc2NC(=O)[C@]12O[C@@H]2c1cccc(O)c1,0.6,-0.3,-1.1,-4.7,2.3,-3.0,.,-0.5
COc1ccc(-c2sc(NC(=O)c3ccc(C)cc3)nc2-c2ccc([N+](=O)[O-])cc2)cc1,3.5,4.4,0.1,-45.6,24.9,2.5,-4.4,0.6
CCOc1ccc(C(CC(=O)O)NC(=O)COc2ccccc2)cc1OC (configuration not stated),2.2,4.6,1.5,?,-2.6,1.1,-8.6,0.0
Cc1ccccc1C(=O)N1CCC(C(=O)N(C)CCOc2ccccc2)CC1,-0.3,-0.5,-1.5,-3.2,-0.4,-0.5,0.0,0.4
CCOc1ccc(NC(=O)CN2CCN(CC(=O)c3ccc(OC)c(OC)c3)CC2)cc1,2.6,.,-10.5,.,.,5.1,-5.0,0.7
CC(C)(C)C(=O)Nc1scc(-c2ccc(-c3ccccc3)cc2)c1C(=O)O,2.1,32.7,3.5,3.4,2.5,4.5,3.8,-0.1
O=c1cc(-c2ccc(O)c(O)c2)oc2cc(O)c(C3OC(CO)C(O)C(O)C3O)c(O)c12 (configuration not stated),3.6,-8.0,0.5,-2.4,-9.1,12.6,.,0.2
Cc1ccccc1NC(=O)Cc1nnc(SCC(=O)N2CCOCC2)n1C,5.3,-2.5,1.4,?,-7.2,4.6,1.3,-0.1
